CDC25B CDK2 inh = human CDC25B-CDK2/CyclinA binding inhibition; z-score (test concentration not listed); HTRF CDC25B-CDK2/CyclinA binding, anti-His/anti-Flag; hits give high values; P30305+P24941; hit rate 0.72% among 94,000;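 note: score is relative to mean and SD of negative controls; strong numbers were not always called active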
TAR Tat displ = HIV-1 TAR-Tat binding disruption | hit rate 0.6% among 100,000 | HIV-1 TAR RNA, Tat peptide displacement FRET; hits give high values | z-score (test concentration not listed);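 note: score is relative to mean and SD of negative controls; some compounds called inactive have numbers as strong as hits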
An asterisk follows results filed as active; / = not tested or not shown.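 Rule for the calls: active = z-score from 3 up in half or more of its runs; inactive = the rest.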 Compounds as they come (roughly 0.9% active in at least one column).

Molecule | CDC25B CDK2 inh | TAR Tat displ
Cc1ccc2nc3sc(C(=O)NC(C)C)cc3cc2c1 | / | -1.1
Cc1cc2c(cc3c(=O)n(CC(=O)NCc4cccnc4)ncn32)s1 | -1.8 | 0.96
O=C(CSc1cn(CC(=O)N2CCCC2)c2ccccc12)Nc1cccc(Cl)c1 | / | -0.74
CC(=O)N1N=C(c2ccccc2)OC1c1ccc([N+](=O)[O-])s1 (configuration not stated) | -1.6 | 2
N#CC(C#N)=c1ccc(=C(C#N)C#N)cc1 | -1.5 | /
O=C(NCc1ccncc1)C(=O)NCC(c1ccco1)S(=O)(=O)c1cccs1 (configuration not stated) | / | 1.2
CCn1cc(S(=O)(=O)c2ccc(Cl)cc2)c(=O)c2cc(F)c(N3CCC(C)CC3)cc21 | / | 0.19
O=C(Cn1cnc2c(oc3nc4c(cc32)CCCC4)c1=O)Nc1ccc(Cl)cc1 | / | -0.56
CCCOC(=O)C1C2C=CC3(CN(C4CCCC4)C(=O)C13)O2 (configuration not stated) | -1.1 | 0.59
CCOC(=O)c1c(C)[nH]c(C)c1S(=O)(=O)N1CCC(C(=O)N2CCN(C3CCCC3)CC2)CC1 | / | 0.45
Cc1noc2ncnc(N3CCCC(C(=O)NCCCN4CCCC4=O)C3)c12 (configuration not stated) | / | 1.2
O=c1c2c(nc3[nH]ncn13)CCN(Cc1ccccc1)C2 | -1.2 | 1.8
O=C(CC(c1ccco1)S(=O)(=O)c1ccccc1)c1ccccc1 (configuration not stated) | -0.54 | -2.6
CCOC(=O)c1c(-c2ccccc2)n2c3c(cccc13)SCC2 | / | 1.5
O=C(CSc1ncnc2ccccc12)Nc1cccc(F)c1 | -3.7 | /
Cc1nc(-c2ccc(C)c(S(=O)(=O)Nc3ccccc3C)c2)cs1 | / | 1.6
Cc1cc(-c2ccc(=O)[nH]n2)cc(S(=O)(=O)NC2CC2)c1C | / | 0.34
Cc1cc(NC(=O)CSc2ncc(C(=O)Nc3ccc(F)cc3)c(=O)n2C)no1 | / | 0.75
COC(=O)c1cc(-c2cccs2)nc2c1c(=O)nc(SCC(=O)N(C)C1CCCCC1)n2C | / | 0.69
Cc1cc(C)cc(NCc2nnc3n2CCCCC3)c1 | / | -0.23

2 records picked at random from those above:
Molecule | CDC25B CDK2 inh | TAR Tat displ
O=C(CC(c1ccco1)S(=O)(=O)c1ccccc1)c1ccccc1 (configuration not stated) | -0.54 | -2.6
CCOC(=O)c1c(C)[nH]c(C)c1S(=O)(=O)N1CCC(C(=O)N2CCN(C3CCCC3)CC2)CC1 | / | 0.45

Shown field by field: 4 of the compounds above.
Molecule: Cc1cc(-c2ccc(=O)[nH]n2)cc(S(=O)(=O)NC2CC2)c1C
  CDC25B CDK2 inh: /
  TAR Tat displ: 0.34
Molecule: Cc1cc(NC(=O)CSc2ncc(C(=O)Nc3ccc(F)cc3)c(=O)n2C)no1
  CDC25B CDK2 inh: /
  TAR Tat displ: 0.75
Molecule: COC(=O)c1cc(-c2cccs2)nc2c1c(=O)nc(SCC(=O)N(C)C1CCCCC1)n2C
  CDC25B CDK2 inh: /
  TAR Tat displ: 0.69
Molecule: Cc1cc(C)cc(NCc2nnc3n2CCCCC3)c1
  CDC25B CDK2 inh: /
  TAR Tat displ: -0.23

Next entries follow:
Molecule | CDC25B CDK2 inh | TAR Tat displ
O=C(NCc1nnc(SCC(=O)N2CCc3ccccc32)n1-c1ccc(F)cc1)c1cccs1 | -1.5 | -0.28
O=C(CSCc1cnn(-c2ccccc2)c1-n1cccc1)N1CCC(N2CCCCC2)CC1 | 0.56 | 1.5
CCCCc1nc(SCC(=O)Nc2nc3c(s2)CCCC3)n[nH]1 | -0.29 | 0.38
Cc1ccc(Nc2c3c(nc4ncnn24)CCCC3)c(C)c1 | / | 0.84
O=C(O)c1ccc(-c2nc(=S)c3c([nH]2)Oc2ccccc2C3)cc1 | -0.72 | -0.36
CCOc1cccc(-c2nc3ccc(Br)cc3c(=O)o2)c1 | -0.74 | 1.6
Cc1[nH][nH]c(=O)c1C(c1ccc(OCc2ccc(F)cc2)cc1)c1c(C)[nH][nH]c1=O | 1.8 | 0.63
Cn1ccc2cc(S(=O)(=O)N3CCN(C(=O)Nc4cccc(F)c4)CC3)ccc21 | / | 0.13
CCOC(=O)C(=CNNS(=O)(=O)c1cc(C(F)(F)F)cc(C(F)(F)F)c1)C(=O)OCC | -1.6 | /
O=S(=O)(c1ccc(F)cc1)N1CCN(c2cc(-c3ccccc3)ncn2)CC1 | / | 0.41
CC(C)c1ccc(CN(C(=O)c2cc(=O)c3ccccc3o2)C2CCS(=O)(=O)C2)cc1 (configuration not stated) | 0.05 | -0.41
C[C@]12C=C(C#N)C[C@@]1(C)C=C(C#N)C2 | -1 | /
CC1(C)Cc2c(sc3[nH]c(=O)n(Cc4ccccc4)c(=O)c23)CO1 | -2.7 | 0.48
Cc1ccccc1Cn1cccc1CNS(=O)(=O)c1ccc(C(C)C)cc1 | / | 1
Cc1ccc(S(=O)(=O)N(C(=O)c2cccnc2)c2ccc3oc(=O)sc3c2)c(C)c1 | -1.7 | 0.81
O=C(CN1C(=O)c2cccnc2Sc2ccccc21)NCc1ccccn1 | / | 0.47
CCN1CCCC1CNC(=O)c1cc(=O)nc2sc(N3CCCC3)nn12 (configuration not stated) | / | 0.55
O=C(NCCc1ccsc1)NCc1noc2ccccc12 | / | -0.36
O=C(C1CCN(S(=O)(=O)c2cccc3nonc23)CC1)N1CCc2ccccc21 | / | 0.59
CCOC(=O)C(=O)Nc1c(C)nc2sccn2c1=O | / | 2.3
CCOc1csc2nc(C)cc(C)c12 | -0.89 | 1.3
CCOc1ccc(-c2cn3ccccc3n2)cc1 | 0.33 | 0.84
COc1ccc(OC)c(S(=O)(=O)Nc2ccc(F)c(F)c2)c1 | 0 | -0.18
C=CCNC(=O)CCCCCn1c(=O)[nH]c2ccsc2c1=O | 0.18 | 0.88
COc1ccc(CCNc2oc(-c3ccc(COc4ccccc4)o3)nc2C#N)cc1 | -0.62 | -1.4
Fc1ccc(NCc2ccc3nccnc3c2)c(F)c1 | / | 0.53
O=C(N1CCCCC1)N1c2ccccc2Sc2ccccc21 | 0.17 | 0.06
O=C(NCc1cccs1)NC1COc2ccccc2C1 (configuration not stated) | / | -0.04
CCOC(=O)c1nn(-c2ccc(C)cc2)c(=O)cc1N1CCCC1 | / | -0.76
CCOC(=O)C1=C(C)NC2=C(C(=O)CC(c3cccs3)C2)C1c1ccc(CC)s1 (configuration not stated) | 1.9 | 0.99
CCCN1C(=O)c2ccc(-c3ccco3)n2CC1(C)C(=O)NC1CCCCC1 (configuration not stated) | / | -6.5
O=S1(=O)CCN(Cc2cccs2)CC1 | -1.2 | /
CC1=C(C(=O)OCc2ccccc2)C(c2cccs2)C2=C(CCCC2=O)N1 (configuration not stated) | -0.11 | 3.1
O=C(CC(CC(=O)c1ccc(Br)cc1)c1cccnc1)c1ccc(Br)cc1 | -1.7 | /
Cc1ccc(C)n1-c1nnc(N2CCCC(C(=O)NCCN3CCCC3)C2)s1 (configuration not stated) | 0.74 | -0.38
CCOC(=O)c1ccc(N2C(=O)C3C4C=CC(CO)(O4)C3C2=O)cc1 (configuration not stated) | -1.1 | 0.8
O=C(NCCc1cccs1)c1ccc(N2CCOc3ccccc32)s1 | / | 0.35
CN(C)S(=O)(=O)c1ccc(C(=O)N2CCc3cc4ccccc4nc32)cc1 | -0.82 | -0.36
COC(=O)c1nnn(-c2ccc(F)c(Cl)c2)c1C(=O)OC | -1.4 | 1
Cc1cc(C)n(-c2ncccc2[N+](=O)[O-])n1 | -1.1 | /
Cc1ccc(C(=O)N2N=C(c3cccc(Br)c3)CC2(O)C(F)(F)F)cc1 (configuration not stated) | -0.57 | /
CC(C)(Cc1nc2ccccc2[nH]1)C(=O)O | -0.82 | 1.4
O=C1C2=C(C(c3ccccc3)=NCCN2)C(c2ccccc2F)N1c1ccccc1 (configuration not stated) | -0.23 | 2.6
CC(NC(=O)C(C(=O)NC(C)C1CC2CCC1C2)C12CC3CC(CC(C3)C1)C2)C1CC2CCC1C2 (configuration not stated) | -3.7 | /
CCOC(=O)C1CCCN(C(=O)c2ccc(OC)c(OC)c2)C1 (configuration not stated) | -1.1 | /
Cc1c(C(=O)N2CCCCC2)c(S(=O)(=O)N2CCC(N3CCCCC3)CC2)c(C)n1C | / | -0.09
Cc1cc(-c2ccc(C)c(S(=O)(=O)N3CCOc4ccc(Cl)cc43)c2)on1 | / | 1.2
CCN(Cc1ccccc1)S(=O)(=O)c1cc(F)ccc1CN1C(=O)c2cccnc2C1=O | / | -0.99
CCCNc1cc(C)nc2nc(-c3ccccc3C)nn12 | -1.9 | 2.7
Brc1ccc(-n2cc(-c3ccccc3)c3c(NCc4cccnc4)ncnc32)cc1 | -1.3 | -0.21
CCN1CCN(C(=O)CN2C(=O)COc3ccc(S(=O)(=O)N4CCC(C)CC4)cc32)CC1 | -1.9 | 1.3
Cc1csc2nc(CSC3CCCCC3)cc(=O)n12 | / | 1.3
Cc1nnc(N2CCN(C(=O)Nc3cc(F)ccc3F)CC2)c2nn(-c3ccc(Cl)cc3)c(C)c12 | / | 1.2
O=S(=O)(Nc1ccc(Br)cn1)c1ccc(F)cc1 | -0.73 | /
O=c1[nH]c2ccsc2c(=O)n1-c1ccc(F)c(Cl)c1 | 1 | /
CCOC(=O)c1c(C)oc2c1c1c(c3ccccc32)OCN(C2CC(C)(C)NC(C)(C)C2)C1 | -5 | /
O=C(O)C1=CC(c2ccccc2Cl)n2ncnc2N1 (configuration not stated) | / | 0.55
CCC(C)NC(=O)c1cnc2ccc(C)cn2c1=O (configuration not stated) | 0.34 | 0.47
Cc1cc(=O)[nH]c(SCCOc2ccc(C)c(C)c2)n1 | 0.35 | 1.2
Cn1ncc2c(N3CCOCC3)nc(N3CCN(Cc4ccccc4)CC3)nc21 | / | 1.2

Carrying on:
Molecule | CDC25B CDK2 inh | TAR Tat displ
Cc1ccc(S(=O)(=O)N2CCc3cc4ccccc4nc32)c(C)c1 | 0.01 | -2.1
COc1ccc(OC)c(C(=O)CC2(O)C(=O)N(C)c3ccccc32)c1 (configuration not stated) | -2.6 | /
NC(=O)CN1C(=O)/C(=C2\SC(=S)N(CCCC(=O)O)C2=O)c2ccccc21 | -4.3 | /
CCC[B-]1(CCC)N=C(C)NC(C)=[NH+]1 | -0.93 | /
CN(C)S(=O)(=O)c1ccc2c(c1)N(CC(=O)N1CCCCC1)CCS2 | / | -2.6
O=C(CSc1ncn[nH]1)n1c2ccccc2c2ccccc21 | 0.02 | 1.1
O=C1CCc2cc(S(=O)(=O)N3CCC(C(=O)N4CCc5ccccc5C4)CC3)ccc2N1 | -1.6 | /
CCOC(=O)C1=C(C)Nc2nc(SCc3cccc(F)c3)nn2C1c1cccs1 (configuration not stated) | -0.8 | 0.04
Cn1c(=O)c2c(nc3n2CC(=O)N(CCc2ccccc2)C3)n(C)c1=O | -0.72 | 0.07
CC(=O)N1CCCc2cc(S(=O)(=O)N3CCCC(C(=O)Nc4ccc5c(c4)OCO5)C3)ccc21 (configuration not stated) | / | 0.26
O=C(CN1C(=O)c2cccnc2Sc2ccccc21)Nc1ccc(Br)cc1F | / | -1.5
C=CCN1C=C(OC(=O)c2ccccc2Br)c2ccccc2S1(=O)=O | -0.27 | -0.26
CC(O)c1nc2ccccc2n1Cc1c(F)cccc1Cl (configuration not stated) | -2.7 | 3.7
O=C(Nc1nonc1-c1ccc(Br)cc1)C1COc2ccccc2O1 (configuration not stated) | -0.13 | 1.6
Cc1cn2c(=O)cc(COc3ccc(C(C)(C)c4ccccc4)cc3)nc2s1 | -1.2 | -0.02
COc1ccc(C2Oc3ccccc3C3CC(c4cc(OC)ccc4O)=NN32)c(OC)c1 (configuration not stated) | -1.1 | -1.7
CSc1ccc(C2c3c(-c4c(C)cc(C)cc4O)n[nH]c3C(=O)N2Cc2ccco2)cc1 (configuration not stated) | -2.4 | 0.95
CC1=C(C(=O)OCc2ccccc2)C(c2ccc(O)cc2)C2=C(CCCC2=O)N1 (configuration not stated) | -0.28 | -0.78
Cc1cn2c(=O)c(S(=O)(=O)Nc3ccc(C(C)C)cc3)c(C)nc2s1 | / | -1.1
O=C(Cn1cnc2c(oc3ccccc32)c1=O)c1ccc(Cl)cc1 | / | 3

Looked up above.
Entry of CC(=O)N1CCCc2cc(S(=O)(=O)N3CCCC(C(=O)Nc4ccc5c(c4)OCO5)C3)ccc21 (configuration not stated) under TAR Tat displ: 0.26
Entry of CN(C)S(=O)(=O)c1ccc2c(c1)N(CC(=O)N1CCCCC1)CCS2 under TAR Tat displ: -2.6
Entry of COc1ccc(OC)c(C(=O)CC2(O)C(=O)N(C)c3ccccc32)c1 (configuration not stated) under CDC25B CDK2 inh: -2.6
Entry of Cc1cn2c(=O)cc(COc3ccc(C(C)(C)c4ccccc4)cc3)nc2s1 under CDC25B CDK2 inh: -1.2
Entry of CC(O)c1nc2ccccc2n1Cc1c(F)cccc1Cl (configuration not stated) under TAR Tat displ: 3.7
Entry of COc1ccc(C2Oc3ccccc3C3CC(c4cc(OC)ccc4O)=NN32)c(OC)c1 (configuration not stated) under CDC25B CDK2 inh: -1.1

Remaining list, next part:
Molecule | CDC25B CDK2 inh | TAR Tat displ
CCN(CC)CCCNc1nc2ccccc2c2nc(-c3ccncc3)nn12 | -0.61 | 1.9
CCC1(C)Cc2c(sc3nc(SCc4ccccc4)n(C)c(=O)c23)CO1 (configuration not stated) | 0.17 | 0.35
COc1ccc(OC)c(C2/C(=C(/O)c3ccc(C)cc3)C(=O)C(=O)N2c2cccnc2)c1 (configuration not stated) | 6* | 0.4
CC(=O)N1c2ccc(S(=O)(=O)N3CCCC3)cc2CC1C(=O)NCCN(C)C (configuration not stated) | / | 2.2
CCC(=O)N1CCc2cc(Br)cc(S(=O)(=O)NCC3CCCN3CC)c21 (configuration not stated) | 4.5* | /
N#Cc1cc2c(nc1SCC(O)CNc1ccc(Cl)cc1)CCCC2 (configuration not stated) | -3.1 | -1.1
Cc1ccc(Cl)cc1N1CC(O)=C(c2nc3ccccc3s2)C1=N | 0.4 | 1.7
CCOC(=O)c1c(S(=O)(=O)N2CCN(C)CC2)c(C)n(C)c1C | / | 0.88
CCCc1ccc(C(=O)CC2(O)C(=O)Nc3ccccc32)cc1 (configuration not stated) | / | 2.7
CCC(C)Nc1ncnc2sc3c(c12)CCCC3 (configuration not stated) | -1.2 | 1.2

Screening data (PubChem)
